Compound activity deposited in PubChem by National Center for Advancing Translational Sciences (NCATS).
VDR inh: blocks the human vitamin D receptor; 0.93% of 400,000 active; VDR-SRC2-3 peptide fluorescence polarization, 2 h; Potency, µM, for the others: max response, negative = inhibition, most hits filed as inhibitors; active = well fitted inhibition curve with a large enough effect; inconclusive = small, poorly fitted or top-dose-only effect, or another doubt; inactive = no such curve, though single readings can be large or run the other way; also: series mostly up to about 120 µM
Target sequence (P11473 whole entry, looked up): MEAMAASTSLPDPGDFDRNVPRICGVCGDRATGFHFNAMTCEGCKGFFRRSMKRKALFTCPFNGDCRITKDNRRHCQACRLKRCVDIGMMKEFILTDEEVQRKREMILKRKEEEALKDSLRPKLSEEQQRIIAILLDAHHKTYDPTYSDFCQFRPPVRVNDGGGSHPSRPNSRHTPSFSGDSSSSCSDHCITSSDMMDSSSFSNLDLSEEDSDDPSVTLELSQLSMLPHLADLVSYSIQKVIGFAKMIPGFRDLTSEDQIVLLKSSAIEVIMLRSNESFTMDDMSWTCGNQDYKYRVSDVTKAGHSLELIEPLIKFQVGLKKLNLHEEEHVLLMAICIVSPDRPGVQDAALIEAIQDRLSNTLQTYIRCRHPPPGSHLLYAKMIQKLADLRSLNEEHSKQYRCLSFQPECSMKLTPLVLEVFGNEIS
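Inhibition of the VDR/SRC2-3 peptide interaction is quantified by fluorescence polarization. Compounds (23 nl, pintool) incubate with the reagents for 2 hours at ambient room temperature.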
* marks the source's active call; other numbers are inactive results; & = joins results of further samples. % is scaled to controls: 0 for no effect and ±100 for the full control effect; potency is read from the fitted curve at half-maximal effect. These rows are one share of the data; the hit share may differ from the screen's.

What do the screens show for `CCCCSCCCNC(=O)c1cn(C)c2ccc(S(=O)(=O)N3CCCC3)cc2c1=O`?
VDR inh: 9%&10%

How did COCCCNC(=O)CNC(=S)N(Cc1ccccc1)Cc1cccnc1 do in these assays?
VDR inh: 1%

What do the screens show for `Cc1ccc2c(CC(=O)O)coc2c1`?
VDR inh: 5%

How did O=C(Nc1ccn(CCCNCCCN2CCCC2=O)c(=O)n1)OCc1ccccc1 do in these assays?
VDR inh: 8%

Results for CCC1(C)N(O)C(C)(C)C(c2ccc(OC)cc2)=[N+]1[O-] (configuration not stated) ?
VDR inh: -6%

Results for CCCCn1c(N)c(N(CCOC)C(=O)c2cccc(S(=O)(=O)N3CCCCCC3)c2)c(=O)[nH]c1=O ?
VDR inh: -26%

How did S=C(Nc1ccc(Nc2ccccc2)cc1)NN1CCOCC1 do in these assays?
VDR inh: -5%

How did FC(F)(F)c1cc(-c2ccco2)nc(N2CCN(c3ccccc3)CC2)n1 do in these assays?
VDR inh: -4%

What do the screens show for `CC(=O)c1c(C(=O)O)[nH]c(C(=O)O)c1C`?
VDR inh: -6%

How did CCCN1CNC(=S)N(Cc2ccccc2)C1 do in these assays?
VDR inh: 3%

What do the screens show for `COc1ccccc1-n1cnc2cc(C(=O)NCCCN3CCOCC3)ccc21`?
VDR inh: -11%

Results for COC(=O)[C@@H](Cc1ccccc1)NC(=O)[C@H]1CCC(=O)N1C(=O)OCc1ccccc1 ?
VDR inh: 1%

What do the screens show for `O=C(CCNc1cc(Cl)cc(Cl)c1)c1ccco1`?
VDR inh: -23%

Results for COc1ccc(N2C(=O)C3CCCN3C2=O)cc1 (configuration not stated) ?
VDR inh: 16%

How did N#C/C(=C\c1cc(Cl)cc(Cl)c1)c1cccnc1 do in these assays?
VDR inh: 1%&-22%

Of the compounds above, these have sulfur.
What do the screens show for `CCCCSCCCNC(=O)c1cn(C)c2ccc(S(=O)(=O)N3CCCC3)cc2c1=O`?
VDR inh: 9%&10%

How did COCCCNC(=O)CNC(=S)N(Cc1ccccc1)Cc1cccnc1 do in these assays?
VDR inh: 1%

Results for CCCCn1c(N)c(N(CCOC)C(=O)c2cccc(S(=O)(=O)N3CCCCCC3)c2)c(=O)[nH]c1=O ?
VDR inh: -26%

How did S=C(Nc1ccc(Nc2ccccc2)cc1)NN1CCOCC1 do in these assays?
VDR inh: -5%

How did CCCN1CNC(=S)N(Cc2ccccc2)C1 do in these assays?
VDR inh: 3%

(more compounds)
Results for Cc1cc2[nH]c(=O)c(=O)[nH]c2cc1S(=O)(=O)NC1CCCCC1C (configuration not stated) ?
VDR inh: -7%

How did COc1ccc(-c2noc(-c3ccoc3C)n2)cc1 do in these assays?
VDR inh: 0%

Results for Cc1ccc(N(CC(=O)NCCc2ccc(Cl)cc2)S(=O)(=O)N(C)C)cc1 ?
VDR inh: 0%

Results for COCCCNC(=O)C1CCN(c2cc(C)nc3c(-c4ccc(OC)c(OC)c4)c(C)nn23)CC1 ?
VDR inh: 0%

How did CCN(CC(=O)Nc1ccccc1OC)CC(=O)Nc1ccccc1C(F)(F)F do in these assays?
VDR inh: -3%

How did COc1cc(C2Nc3ccccc3C(=O)N2Cc2ccccc2)ccc1OCc1ccccc1 (configuration not stated) do in these assays?
VDR inh: -9%

How did COc1ccc(Cn2c(SCC(=O)N3CCN(c4ccc(F)cc4)CC3)nc3ccccc32)cc1 do in these assays?
VDR inh: 9%

What do the screens show for `Cc1cc(C)n(CCC(=O)Nc2ccc(Cl)cc2)n1`?
VDR inh: 11%

What do the screens show for `Cc1ccc(Cn2c(CN3CCC(C(=O)NCC(C)c4ccccc4)CC3)cc3ccccc32)cc1` (configuration not stated)?
VDR inh: 9%

What do the screens show for `COc1ccc(-n2c(SCC(=O)N3CCOCC3)nc(O)cc2=O)cc1`?
VDR inh: -5%

How did COc1ccc(S(=O)(=O)c2c(Nc3cccc(C)c3C)sc(C(=O)c3ccccc3)c2N)cc1 do in these assays?
VDR inh: 6%

What do the screens show for `COc1ccc(C(=O)NCCN2CCN(C(=O)c3ccc(OC)cc3)CC2)cc1`?
VDR inh: -11%

What do the screens show for `NCCC[C@@H](CC(=O)N[C@@H]1CCCC[C@H]1C(=O)N[C@H](CC(=O)N[C@@H](CCC(=O)O)CC(=O)O)Cc1c[nH]c2ccccc12)NC(=O)C[C@H](CO)NC(=O)[C@@H]1CNCC[C@H]1N`?
VDR inh: -2%

Results for CCOC(=O)N1CCN(C(=O)CNC(=O)c2ccc(Br)o2)CC1 ?
VDR inh: 7%

Results for OCCCCC#Cc1c(-c2ccsc2)sc2ccccc12 ?
VDR inh: 1%

How did CC(=O)Nc1ccc(NS(=O)(=O)c2cc3c4c(c2)CC(=O)N4CCC3)cc1 do in these assays?
VDR inh: -4%

What do the screens show for `COc1ccc(NC(=O)CC2C(=O)N(Cc3cccs3)C(=S)N2C(C)C)cc1` (configuration not stated)?
VDR inh: -3%

How did CCN1CCN(c2ccc(NC(=O)Cc3ccccc3)cc2)CC1 do in these assays?
VDR inh: -3%

What do the screens show for `CCc1ccc2c(c1)cc(CN(C(=S)Nc1cccc(C)c1)C1CC1)c1nnnn12`?
VDR inh: 8%

What do the screens show for `Nn1cnc2scc(-c3ccc(Cl)cc3)c2c1=O`?
VDR inh: -8%

Results for O=C(CCC(=O)N1CCOc2ccccc21)NCCc1ccccc1 ?
VDR inh: 18%

How did COc1c(S(=O)(=O)NCCCN2CCOCC2)ccc(Cl)c1Cl do in these assays?
VDR inh: 10%

Results for CCOC(=O)c1sc(N/N=C/c2cc(Br)c(O)c(OC)c2)nc1C ?
VDR inh: 0%

Results for Cc1nc(SCC(=O)Nc2c(C)nn(C)c2C)c2cnn(-c3ccccc3)c2n1 ?
VDR inh: 2%

What do the screens show for `CC(NS(=O)(=O)c1ccc(F)cc1)C(=O)Nc1ccc2c(c1)OCCO2` (configuration not stated)?
VDR inh: -3%

What do the screens show for `CCC(C)OC(=O)C1=C(C)OC23OC(N)=C(C#N)C12C(=O)c1ccccc13` (configuration not stated)?
VDR inh: -9%

Results for Cn1c(N)c(C(=O)COC(=O)Cc2cccs2)c(=O)n(C)c1=O ?
VDR inh: 11%

How did COc1ccc2c(c1-c1c3c(cc(Br)c1OC)CCCC3)CCCC2 do in these assays?
VDR inh: -1%

What do the screens show for `COc1ccc(-c2nnc(SCC(=O)Nc3nc4ccccc4s3)n2C)cc1`?
VDR inh: -6%

How did CC(C)n1c(CN(C)Cc2ccccc2)nc2c1c(=O)n(C)c(=O)n2C do in these assays?
VDR inh: 4%

Results for CCOc1[nH]n(-c2ccc(Cl)cc2)c(=O)c1C=Nc1ccc(O)cc1 ?
VDR inh: 0%

How did N#CC1=C(SCC(N)=O)NC(=O)CC1c1ccccc1Cl (configuration not stated) do in these assays?
VDR inh: -6%

What do the screens show for `CC(=O)N1CCCc2cc(S(=O)(=O)N(C)CC(=O)Nc3ccc(F)cc3Cl)ccc21`?
VDR inh: -4%

How did O=C(CSC1=Nc2ccccc2N=C(c2ccc(F)cc2)C1)Nc1cc(F)ccc1F do in these assays?
VDR inh: 16%

Results for O=C(O)c1cc(N/N=C/c2c(O)ccc3ccccc23)ccc1Cl ?
VDR inh: inconclusive

What do the screens show for `CC(C)(Oc1ccc(Cl)cc1)C(=O)Nc1ccc(-c2nc3ncccc3o2)cc1`?
VDR inh: 7%

Results for COc1ccc(C(=O)NC(=S)Nc2ccc(CN3CCOCC3)cc2)cc1 ?
VDR inh: 19%

Results for CC(CNC(=O)c1cncc(O)c1)NC(=O)c1cncc(O)c1 (configuration not stated) ?
VDR inh: 0%

How did CCOc1ccc(NC(=O)COc2ccccc2)c([N+](=O)[O-])c1 do in these assays?
VDR inh: inconclusive

How did O=C(C=Cc1ccco1)c1cc(Cl)ccc1O do in these assays?
VDR inh: inconclusive

What do the screens show for `Cc1cc(N2C(=O)c3ccc(C(=O)Nc4ccccc4O)cc3C2=O)no1`?
VDR inh: -6%

Results for O=C(NCc1ccc(Cl)cc1)C(=O)NCC(c1cccs1)S(=O)(=O)c1ccc(Cl)cc1 (configuration not stated) ?
VDR inh: 6%

What do the screens show for `CCOCCCNC(=O)c1[nH]c2cc(OC)ccc2c1Sc1ccccc1`?
VDR inh: 5%

How did CN1CCN(C(=O)Cn2c(=O)oc3cc(S(=O)(=O)NCc4ccccc4)ccc32)CC1 do in these assays?
VDR inh: -7%

Results for O=C(Nc1cc(S(=O)(=O)N2CCCC2)ccc1OCC(F)(F)F)c1ccccc1F ?
VDR inh: -20%

4 entries from above, ordered by number of heavy atoms, largest number first.
How did O=C(CSC1=Nc2ccccc2N=C(c2ccc(F)cc2)C1)Nc1cc(F)ccc1F do in these assays?
VDR inh: 16%

What do the screens show for `Cc1cc(N2C(=O)c3ccc(C(=O)Nc4ccccc4O)cc3C2=O)no1`?
VDR inh: -6%

Results for CCOc1[nH]n(-c2ccc(Cl)cc2)c(=O)c1C=Nc1ccc(O)cc1 ?
VDR inh: 0%

Results for O=C(O)c1cc(N/N=C/c2c(O)ccc3ccccc23)ccc1Cl ?
VDR inh: inconclusive

Other records follow:
What do the screens show for `COc1ccc(S(=O)(=O)NCCC(=O)OCC(=O)NC2CC2)cc1`?
VDR inh: -7%

Results for COCc1cc(OC)nc(-c2csc(C)n2)n1 ?
VDR inh: -13%

How did COc1ccccc1NC(=O)c1ccc(N2CC3CC(C2)c2cccc(=O)n2C3)c(NC(=O)c2ccncc2)c1 (configuration not stated) do in these assays?
VDR inh: -2%

What do the screens show for `O=C(COC(=O)c1sc2cc(F)ccc2c1Cl)Nc1ncc(Cl)cc1Cl`?
VDR inh: -2%

What do the screens show for `COc1ccc(CCNC(=O)c2ccn[nH]2)cc1OC`?
VDR inh: -25%

Results for Cc1cccc(CNc2ncnc3ccc(-c4ccccc4Cl)cc23)c1 ?
VDR inh: -27%

How did COc1cc(OC)c(C2CC(=O)Nc3ccc4ccccc4c32)cc1OC (configuration not stated) do in these assays?
VDR inh: inconclusive

How did CCCCCOC(=O)C1=C(C)NC(=O)NC1c1ccc([N+](=O)[O-])cc1 (configuration not stated) do in these assays?
VDR inh: 1%

How did CC(C)Sc1nc(SCC(=O)NCc2ccco2)c2c3c(sc2n1)COC(C)(C)C3 do in these assays?
VDR inh: 0%

How did O=C1CC(c2ccc(OCCCCCOc3ccc(C4CC(=O)NC4=O)cc3)cc2)C(=O)N1 (configuration not stated) do in these assays?
VDR inh: 21%

What do the screens show for `COc1ccccc1CNC(=O)CCn1c(=O)sc2ccccc21`?
VDR inh: 0%

Results for O=C(c1ccco1)N1CCN(C(=O)C2CCCO2)CC1 (configuration not stated) ?
VDR inh: 9%

Results for O=C(CCc1ccccc1)N=C1SC2CS(=O)(=O)CC2N1c1ccccc1F (configuration not stated) ?
VDR inh: -14%

Results for CC(C)(C)C(=O)Nc1ccc(F)cc1[N+](=O)[O-] ?
VDR inh: -11%

How did COC(=O)c1c(NC(=O)Cc2coc3ccc(C)cc23)sc2c1CCC2 do in these assays?
VDR inh: -5%

The final 7 compounds of the part before open the next one:
How did CC(C)Sc1nc(SCC(=O)NCc2ccco2)c2c3c(sc2n1)COC(C)(C)C3 do in these assays?
VDR inh: 0%

How did O=C1CC(c2ccc(OCCCCCOc3ccc(C4CC(=O)NC4=O)cc3)cc2)C(=O)N1 (configuration not stated) do in these assays?
VDR inh: 21%

What do the screens show for `COc1ccccc1CNC(=O)CCn1c(=O)sc2ccccc21`?
VDR inh: 0%

Results for O=C(c1ccco1)N1CCN(C(=O)C2CCCO2)CC1 (configuration not stated) ?
VDR inh: 9%

Results for O=C(CCc1ccccc1)N=C1SC2CS(=O)(=O)CC2N1c1ccccc1F (configuration not stated) ?
VDR inh: -14%

Results for CC(C)(C)C(=O)Nc1ccc(F)cc1[N+](=O)[O-] ?
VDR inh: -11%

How did COC(=O)c1c(NC(=O)Cc2coc3ccc(C)cc23)sc2c1CCC2 do in these assays?
VDR inh: -5%

Results for CCOC(=O)C1CCCN(C(=O)Cn2nc(C)c3c(C)n(-c4ccccc4)nc3c2=O)C1 (configuration not stated) ?
VDR inh: 15%

Results for CC1(C)CC(=O)c2cc(OCC(=O)NCCN3CCCc4ccccc43)ccc2O1 ?
VDR inh: -1%

Results for COc1ccc(S(=O)(=O)Nc2cccc(C)n2)c2ccccc12 ?
VDR inh: -3%

How did COC(=O)N1CN(C(=O)OC)CN(C(=O)OC)C1 do in these assays?
VDR inh: 3%

What do the screens show for `O=C(N=Nc1c(O)[nH]c2ccc(Cl)cc12)c1cc(-c2cccs2)nc2ccccc12`?
VDR inh: -9%

Results for OB(O)c1ccc(Br)cc1 ?
VDR inh: -1%

Results for COc1ccc(S(=O)(=O)N(C)CC(=O)NC2CCCC2)cc1OC ?
VDR inh: -4%

Results for O=C(c1cc(-c2ccc3c(c2)OCO3)on1)N1CCCCC1 ?
VDR inh: -9%

What do the screens show for `O=C(/C=N/O)NCCN1CCCCC1`?
VDR inh: -8%

How did CC(=O)NC(=S)Nc1ccc(NC(=O)COc2ccc(Cl)cc2Cl)cc1 do in these assays?
VDR inh: 9%

What do the screens show for `Cc1nn(C)c(Cl)c1/C=C/C(=O)O`?
VDR inh: -25%

What do the screens show for `CCCCNC(=O)CCCCCn1c(=O)[nH]c2ccccc2c1=O`?
VDR inh: 19%

What do the screens show for `CCNC(=S)NNC(=O)Cn1c(=O)c2c(ncn2CCOC)n(Cc2ccccc2)c1=O`?
VDR inh: 1%

What do the screens show for `CC(C)CCOP(=O)(c1ccc(N(C)C)cc1)C(O)c1ccc(Cl)cc1Cl` (configuration not stated)?
VDR inh: -12%

How did CCn1c(N)[n+](CC(=O)Nc2ccc(SC(F)F)cc2)c2ccccc21 do in these assays?
VDR inh: -19%

Results for CCCCN1C(=O)C(O)(CC(=O)c2ccc(C)cc2C)c2cc(Br)ccc21 (configuration not stated) ?
VDR inh: 8%

Results for Cn1cnnc1SCC(=O)Nc1ncc(C(F)(F)F)cc1Cl ?
VDR inh: -16%

What do the screens show for `O=C(c1ccccc1-c1nc2ccccc2[nH]1)N1CCOCC1`?
VDR inh: 10%
